Screening data (PubChem)
tolC growth inh: growth inhibitors of E. coli BW25113 tolC mutant; OD615; growth inhibition, % at 10 µM (by protocol); actives 2.2% (n = 65,000);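 active = growth inhibition at or above a cutoff equal to the mean over every tested compound plus 3 SD, cut at about 60% in these data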;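 also: growth measured after 20 h incubation at 37 °C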
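Test system: tolC-deleted E. coli BW25113 | Medium: LB with kanamycin 50 µg/mL | Compound dosing: Single concentration, 10 µM final per compound | Schedule: 37 °C, 20 h exposure | Measured by: OD at 615 nm | Evaluation: Percent growth inhibition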
SF1 activator: SF-1 (human) activation; CHO-K1 Gal4-SF-1 LBD luciferase reporter; % increase over DMSO SF-1-specific signal; activation, % at 10 µM; actives 1.9% (n = 65,000);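 active = activation above the mean activation of all tested compounds plus 3 SD, cut at about 50% in these data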
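Material: CHO-K1 cells with Gal4–hSF-1 LBD chimera plus Gal4-driven luciferase / Input: 4,000 CHO-K1 cells per well / Incubation: compound exposure 20 h at 37 °C / Signal: luminescence read 15 min after SteadyLite luciferase reagent, after room-temperature equilibration / Read-out: percent activation versus DMSO / Benchmarks: DMSO negative control and −SF1 background wells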
NADH coupling: inhibition of NAD/NADH coupling enzymes, library profiling; coupled PK/LDH NADH assays, four targets; IC50, µM (doses to about 10 µM), for inactives: at the top dose inhibition; actives 0.02% (n = 65,000); AID 774;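 active = single-dose screening hits from any of four coupled enzyme assays that gave an IC50 when retested across doses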;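 also: the DPM-DC format reads NADH fluorescence rather than 340 nm absorbance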
TNAP act DEA: human TNAP activation, intermediate phosphate acceptor; activation factor at 20 µM; 64,000 tested, under 10 active; P05186; purified TNAP, CDP-star luminescence, 100 mM DEA, 30 min; stronger effect = higher value; scale: 0 levamisole-inhibited, 1 vehicle-only enzyme;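 active = activation factor of at least 2 at 20 µM, relative to controls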
Target sequence (P05186 whole entry, looked up): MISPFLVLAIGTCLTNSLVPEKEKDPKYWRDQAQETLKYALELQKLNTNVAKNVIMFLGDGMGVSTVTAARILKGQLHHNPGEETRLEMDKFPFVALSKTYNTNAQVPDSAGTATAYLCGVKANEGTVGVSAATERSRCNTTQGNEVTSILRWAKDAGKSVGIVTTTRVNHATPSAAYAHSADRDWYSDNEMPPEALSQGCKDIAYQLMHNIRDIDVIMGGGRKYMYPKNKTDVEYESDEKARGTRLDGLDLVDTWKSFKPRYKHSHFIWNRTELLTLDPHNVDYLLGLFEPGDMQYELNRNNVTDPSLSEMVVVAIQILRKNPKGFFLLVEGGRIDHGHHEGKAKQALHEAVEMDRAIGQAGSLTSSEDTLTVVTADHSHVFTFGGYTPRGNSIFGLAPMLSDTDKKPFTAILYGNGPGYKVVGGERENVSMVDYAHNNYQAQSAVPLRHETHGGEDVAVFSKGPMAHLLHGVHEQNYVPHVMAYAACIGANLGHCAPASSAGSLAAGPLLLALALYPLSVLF
E coli RNAP: Escherichia coli RNA polymerase inhibition; actives 0.2% (n = 62,000); inhibition, %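 (tested at 10 µM)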; P0A8V2; E. coli RNA polymerase, fluorescence transcription assay; in the data active = inhibition above about 20%;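 also: 0% = enzyme without compound and 100% = no enzyme blank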
* = called active by the depositor; nt = not tested or not shown; & = joins results of further samples; [ ] = dose if it differs, or a comment. Only part of the results is shown; the hit share may differ from the screen's.

(1) CC1C/C=C/C=C/C=C/C=C/C(O[C@@H]2O[C@H](C)[C@@H](O)[C@H](N)[C@@H]2O)CC2OC(O)(CC(O)CC3OC3/C=C/C(=O)O1)CC(O)C2C(=O)O (stereo partly drawn)
(2) C[C@]12C[C@H](O)[C@H]3[C@@H](CCC4=CC(=O)CC[C@@]43C)[C@@H]1CC[C@@H]2C(=O)CO
(3) CCCN(CCC)S(=O)(=O)c1ccc(C(=O)O)cc1
(4) CCC1(c2ccccc2)C(=O)NCNC1=O
(5) Nc1ccc(S(=O)(=O)NC(=O)c2ccccc2)cc1
Screen / compound no. | 1 | 2 | 3 | 4 | 5
tolC growth inh | 16 | 17 | 9 | 5 | -3
SF1 activator | 2 | -6 | 5 | 0 | -4
TNAP act DEA | 0.9 | 0.9 | 0.8 | 0.9 | 0.9
E coli RNAP | 7 | 8 | 7 | 13 | 11
NADH coupling | 2% | 2% | 1% | 2% | 2%

(6) O=C1NC(=O)C(c2ccccc2)(c2ccccc2)N1
(7) COCCCC/C(=N\OCCN)c1ccc(C(F)(F)F)cc1
(8) CC(C)NCC(O)COc1ccc(CC(N)=O)cc1 (stereo not drawn)
(9) COc1cc(NS(=O)(=O)c2ccc(N)cc2)nc(OC)n1
(10) Cc1ccc(Cl)c(Nc2ccccc2C(=O)O)c1Cl
Screen / compound no. | 6 | 7 | 8 | 9 | 10
tolC growth inh | 11 | 2 | 12 | 13 | 10
SF1 activator | 9 | -1 | 3 | -13 | -8
TNAP act DEA | 0.9 | 0.9 | 0.9 | 0.9 | 0.9
E coli RNAP | 1 | 8 | nt | 11 | 13
NADH coupling | 2% | 2% | 1% | 3% | 2%

Entries 1 through 10, quoted:
(1) CC1C/C=C/C=C/C=C/C=C/C(O[C@@H]2O[C@H](C)[C@@H](O)[C@H](N)[C@@H]2O)CC2OC(O)(CC(O)CC3OC3/C=C/C(=O)O1)CC(O)C2C(=O)O (stereo partly drawn)
(2) C[C@]12C[C@H](O)[C@H]3[C@@H](CCC4=CC(=O)CC[C@@]43C)[C@@H]1CC[C@@H]2C(=O)CO
(3) CCCN(CCC)S(=O)(=O)c1ccc(C(=O)O)cc1
(4) CCC1(c2ccccc2)C(=O)NCNC1=O
(5) Nc1ccc(S(=O)(=O)NC(=O)c2ccccc2)cc1
(6) O=C1NC(=O)C(c2ccccc2)(c2ccccc2)N1
(7) COCCCC/C(=N\OCCN)c1ccc(C(F)(F)F)cc1
Screen / compound no. | 1 | 2 | 3 | 4 | 5 | 6 | 7
tolC growth inh | 16 | 17 | 9 | 5 | -3 | 11 | 2
SF1 activator | 2 | -6 | 5 | 0 | -4 | 9 | -1
TNAP act DEA | 0.9 | 0.9 | 0.8 | 0.9 | 0.9 | 0.9 | 0.9
E coli RNAP | 7 | 8 | 7 | 13 | 11 | 1 | 8
NADH coupling | 2% | 2% | 1% | 2% | 2% | 2% | 2%

(8) CC(C)NCC(O)COc1ccc(CC(N)=O)cc1 (stereo not drawn)
(9) COc1cc(NS(=O)(=O)c2ccc(N)cc2)nc(OC)n1
(10) Cc1ccc(Cl)c(Nc2ccccc2C(=O)O)c1Cl
Screen / compound no. | 8 | 9 | 10
tolC growth inh | 12 | 13 | 10
SF1 activator | 3 | -13 | -8
TNAP act DEA | 0.9 | 0.9 | 0.9
E coli RNAP | nt | 11 | 13
NADH coupling | 1% | 3% | 2%

Continued:
(11) OCCN1CCN(CCCN2c3ccccc3Sc3ccc(C(F)(F)F)cc32)CC1
(12) Cc1cn([C@H]2C=C[C@@H](CO)O2)c(=O)[nH]c1=O
(13) C[C@]12CC[C@@H]3c4ccc(O)cc4CC[C@H]3[C@@H]1CCC2=O
(14) CCCSc1ccc2nc(NC(=O)OC)[nH]c2c1
(15) CN1CCN(CCCN2c3ccccc3Sc3ccc(Cl)cc32)CC1
Screen / compound no. | 11 | 12 | 13 | 14 | 15
tolC growth inh | 10 | -1 | 20 | 11 | -14
SF1 activator | -9 | 1 | -24 | 13 | -13
TNAP act DEA | 0.8 | 0.9 | 0.9 | 0.9 | 0.8
E coli RNAP | 5 | 4 | 5 | 4 | 9
NADH coupling | 4% | 2% | 2% | 1% | 3%

(16) Cc1cc(C(C)(C)C)c(O)c(C)c1CC1=NCCN1
(17) CC(=O)OCC(=O)[C@@]1(O)CC[C@H]2[C@@H]3CCC4=CC(=O)C=C[C@]4(C)[C@H]3[C@@H](O)C[C@@]21C
(18) Cc1ccccc1C(OCCN(C)C)c1ccccc1 (stereo not drawn)
(19) CC(CCc1ccccc1)NCC(O)c1ccc(O)c(C(N)=O)c1 (stereo not drawn)
(20) C(=C\c1ccccc1)/CN1CCN(C(c2ccccc2)c2ccccc2)CC1
Screen / compound no. | 16 | 17 | 18 | 19 | 20
tolC growth inh | -1 | 16 | 11 | 4 | 6
SF1 activator | 17 | -6 | -3 | 5 | -2
TNAP act DEA | 0.9 | 0.9 | 0.9 | 0.9 | 0.9
E coli RNAP | 10 | 5 | 7 | -19 | 5
NADH coupling | 2% | 1% | 1% | 2%[fluoresces] | 2%

(21) c1ccc2[nH]c(-c3cscn3)nc2c1
(22) CC(=O)O[C@]1(C(C)=O)CC[C@H]2[C@@H]3C=C(C)C4=CC(=O)CC[C@]4(C)[C@H]3CC[C@@]21C
(23) CC(=O)OCC[N+](C)(C)C
(24) CC(C)Cn1cnc2c(N)nc3ccccc3c21
(25) NC(N)=Nc1nc(CSCC/C(N)=N/S(N)(=O)=O)cs1
Screen / compound no. | 21 | 22 | 23 | 24 | 25
tolC growth inh | 12&-14 | -2 | 11 | -12 | 15
SF1 activator | 34 | -8 | 4 | -4 | 10
TNAP act DEA | 0.9 | 0.9 | 0.9 | 0.9 | 0.9
E coli RNAP | 7 | 6 | 5 | 3 | 10
NADH coupling | 2%&5% | 3% | 3% | 3% | 2%

(26) OC(CCN1CCCCC1)(c1ccccc1)C1CCCCC1 (stereo not drawn)
(27) C[C@]12C=CC(=O)C=C1CC[C@H]1[C@@H]3C[C@@H](O)[C@](O)(C(=O)CO)[C@@]3(C)C[C@H](O)[C@@]12F
(28) COCCOC(=O)C1=C(C)NC(C)=C(C(=O)OC(C)C)C1c1cccc([N+](=O)[O-])c1 (stereo not drawn)
(29) COc1ccc(C(NC(=O)c2ccco2)c2ccc(OC)c(OC)c2)cc1 (stereo not drawn)
Screen / compound no. | 26 | 27 | 28 | 29
tolC growth inh | 10 | 6 | 8 | 5
SF1 activator | -2 | -4 | 2 | -5
TNAP act DEA | 0.9 | 0.9 | 0.9 | 0.9
E coli RNAP | 3 | 11 | 6 | 11
NADH coupling | 2% | 2% | 1% | 10%
